# Vif A3G: inhibitors of Vif binding to APOBEC3G peptide, primary screen, biochemical, TR-FRET, GST-Vif 1-94, biotin-A3G peptide, dose response retest (AID 1117319); inhibition, %, or IC50 in µM where a hit was titrated; Virion infectivity factor (Human immunodeficiency virus type 1 group M subtype B (isolate …; TR-FRET GST-Vif / biotin-A3G peptide binding; higher % means a stronger effect; test concentration not given here; strong numbers were not always called active; hit rate 0.57% among 260,000;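 active = above the screen mean plus three standard deviations and confirmed in dose response; inconclusive = results disagree or hit not tested in dose response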;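 also: Vif residues 1-94 fused to GST binding biotinylated APOBEC3G peptide 110-148; 0% = full assay without inhibitor and 100% = GST in place of GST-Vif; retest series ran down from 100 µM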
# ALR inh: inhibitors of human ALR sulfhydryl oxidase, primary screen, biochemical, H2O2 detection, HRP-luminol luminescence, single point. inhibition, % (no concentration beside the values). hit rate 3.8% among 290,000. purified ALR, DTT oxidation. AID 485317, 2010. FAD-linked sulfhydryl oxidase ALR (Homo sapiens), P55789;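 active = mean and each replicate at 75% or more; inconclusive = only one of the two met; inactive = neither met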;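 also: stock transfer was 7.5 nL into about 7.5 µL; 0% = neutral wells and 100% = wells with inactivated enzyme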
# Target sequence (P55789 whole entry, looked up): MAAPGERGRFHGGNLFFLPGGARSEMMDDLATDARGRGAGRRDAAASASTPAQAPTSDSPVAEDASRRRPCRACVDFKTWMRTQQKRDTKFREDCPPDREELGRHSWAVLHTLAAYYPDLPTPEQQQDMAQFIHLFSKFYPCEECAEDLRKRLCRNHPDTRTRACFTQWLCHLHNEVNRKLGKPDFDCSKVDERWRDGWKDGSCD
# MLL AF4-AF9 inh: inhibitors of AF4 peptide binding to AF9, primary screen, biochemical, AlphaScreen, biotin-AF4 peptide, FLAG-AF9, single point; hit rate 0.47% among 350,000; AID 651704, 2012; inhibition, % at 10 µM; Protein AF-9 (Homo sapiens), P42568;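 active = every replicate reaching a set inhibition limit, whatever the replicate mean, cut at about 25% in these data; inconclusive = mean inhibition reaches that limit but some replicates miss it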;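 also: 0% = plate neutral control median and 100% = total signal loss; the record names both 10 and 1 µM as test concentration; the first replicate is given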
# Target sequence (P42568 whole entry, looked up): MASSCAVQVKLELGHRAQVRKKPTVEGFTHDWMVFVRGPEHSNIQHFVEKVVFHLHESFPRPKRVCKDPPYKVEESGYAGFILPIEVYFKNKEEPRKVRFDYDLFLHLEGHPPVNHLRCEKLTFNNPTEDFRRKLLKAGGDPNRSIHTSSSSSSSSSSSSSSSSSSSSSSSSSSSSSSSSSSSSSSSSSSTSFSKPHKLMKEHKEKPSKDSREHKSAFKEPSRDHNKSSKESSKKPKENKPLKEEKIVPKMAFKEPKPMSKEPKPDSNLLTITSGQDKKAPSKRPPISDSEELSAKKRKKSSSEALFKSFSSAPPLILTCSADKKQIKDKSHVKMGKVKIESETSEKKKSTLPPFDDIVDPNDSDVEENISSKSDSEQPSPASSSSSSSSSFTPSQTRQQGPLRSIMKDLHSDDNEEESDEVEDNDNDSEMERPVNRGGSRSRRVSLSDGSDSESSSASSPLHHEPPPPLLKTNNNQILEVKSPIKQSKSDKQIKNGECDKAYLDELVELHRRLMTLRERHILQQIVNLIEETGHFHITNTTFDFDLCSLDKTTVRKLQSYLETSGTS
# HNF4A DNA FP: change in binding of human HNF4A to DNA, primary screen, biochemical, fluorescence polarization, FITC-DNA; hit rate 0.3% among 360,000; activity change, % at 10 µM; Hepatocyte nuclear factor 4-alpha (Homo sapiens), P41235; AID 1224865, 2016; 1 h; in the data active = activity change above about 30%, passing the limit was not always enough;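 also: controls were the assay level and a saturating level of protein; the project sought stronger binding though the title names inhibitors; some compounds called inactive have numbers as strong as hits; positive values seem to mean higher polarization but the record does not say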
# E coli growth: E. coli growth inhibition, primary screen, OD600 | Escherichia coli growth, 23 h; hits give low values | OD600 absorbance (test concentration not listed) | hit rate 0.21% among 330,000;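 active = OD600 absorbance below the run mean of sample wells minus 3.6 SD, in any replicate, cut at about 0.56 in these data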;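 also: stock transfer was 300 nL into about 60 µL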
# FGF22 binding: binders of human FGF22 protein, primary screen, FGF22 synaptogenesis inhibitor project, biophysical, thermal shift, single point; Fibroblast growth factor 22 (Homo sapiens), Q9HCT0; calls only at 9.99 µM; hit rate 1.5% among 340,000; AID 651658, 2012; recombinant FGF22 thermal shift, SYPRO orange fluorescence; percent of sucrose octasulfate shift, DMSO zero;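 active = melting point raised past a set limit in the mean and every replicate; inconclusive = no clear call; three in four hits are not shown here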
# Target sequence (Q9HCT0 whole entry, looked up): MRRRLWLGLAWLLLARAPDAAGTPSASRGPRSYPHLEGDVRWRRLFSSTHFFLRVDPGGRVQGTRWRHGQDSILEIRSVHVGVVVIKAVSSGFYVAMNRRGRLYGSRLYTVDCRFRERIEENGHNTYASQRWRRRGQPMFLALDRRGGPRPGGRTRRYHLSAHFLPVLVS
# Ecoli rRNA inh: reduced GFP signal of wild-type E. coli, primary screen, bacterial rRNA inhibitor project, GFP/RFP fluorescence, OD600, single point | GFP signal change (wild-type ribosome), % (concentration not given with the values) | E. coli WT GFP vs humanized-ribosome RFP mutants, 24 h; hits give low values; DMSO median 0, no signal -100 | AID 720706, 2013 | hit rate 1.6% among 350,000;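 active = significant combined selectivity score with lowered wild-type GFP, culture density cut under 30%, mutant RFP and density less affected; inactive = any of these conditions unmet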; also: one replicate is shown; some compounds called inactive have numbers as strong as hits
# Ecoli rRNA inh OD600: further read-out of Ecoli rRNA inh, marked with its call; OD600 change, %; measured here: OD600 growth;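 optical density of the mix in the first replicate; 0 = DMSO median and -100 = no signal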
# Ecoli rRNA inh RFP: recorded beside Ecoli rRNA inh, whose call it bears; RFP signal change, %; measured here: RFP humanized mutant strains;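 first replicate; 0 = DMSO median and -100 = no signal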
# An asterisk follows results filed as active; i = inactive; u = inconclusive; x = not tested or not shown. An excerpt; rates above refer to the full screens.
SMILES,Vif A3G,ALR inh,MLL AF4-AF9 inh,HNF4A DNA FP,E coli growth,FGF22 binding,Ecoli rRNA inh,Ecoli rRNA inh OD600,Ecoli rRNA inh RFP
C[C@H](CO)N1C[C@H](C)[C@H](CN(C)C)Oc2ccc(NC(=O)Nc3cccc4ccccc34)cc2CC1=O,x,x,1.5,x,x,i,-1,0,-0.1
CC(=O)c1ccc(N2CCN(C(=O)C(=O)c3cn(CC(=O)N4CCOCC4)c4ccccc34)CC2)cc1,x,x,-3.3,0.9,x,i,x,x,x
CC[C@]12c3[nH]c4ccc(Cl)cc4c3CCN1C(=O)[C@@H](CC(=O)NCCCn1ccnc1)C[C@@H]2C(=O)N1CCN(C(=O)C2CC2)CC1,-1%,x,3.9,0.7,0.69,i,5,4,-8.9
Cn1ncc(Br)c1N1C(=O)CCC1=O,-2%,-2,-5.4,2.9,0.7,i,4,7,-1.3
CC[C@H](C)[C@@H]1NC(=O)[C@@H](CC(C)C)NC(=O)[C@H](C(C)C)NC(=O)[C@H]2CSSC[C@H](NC1=O)C(=O)N2,x,x,-2.6,4.4,x,i,-9,-4,-1.2
CN1C(=O)c2cc(NC(=O)c3cscn3)ccc2OC[C@@H]2O[C@@H](CC(=O)N3CCOCC3)CC[C@H]21,x,x,-1.8,x,x,i,3,8,0.8
O=C(NNC(=O)c1ccccc1[N+](=O)[O-])c1ccc(NC(=O)c2ccccc2)cc1,x,0,-13,-2.7,0.73,i,5,15,1.1
FC(F)(F)c1cccc(N2CCN(c3ccc4nnc(-c5ccccc5)n4n3)CC2)c1,-16%,x,x,3.3,0.77,x,x,x,x
COc1ccc(NC(=O)c2csc(Cc3ccccc3)n2)cc1,4%,3,x,-0.4,0.67,x,x,x,x
O=C(Nc1ccc(Cl)cc1)N[C@H]1CC[C@@H](CCNC(=O)c2ccccc2F)O[C@@H]1CO,x,x,0.0,x,x,i,-4,-6,3.9
C[C@@H]1CN([C@@H](C)CO)C(=O)c2cc(NC(=O)Nc3ccc(C(F)(F)F)cc3)ccc2O[C@@H]1CN(C)C(=O)Nc1ccccc1,x,x,-1.9,x,x,i,5,0,0.9
O=C1NCCCc2c1oc1ccc(O)cc21,11%,99*,x,1.2,0.71,x,x,x,x
O=C(COn1nnc2ccc(Cl)cc21)Nc1ccc(F)cc1,-5%,4,-1.9,-1.3,0.63,i,-3,-7,6.9
CCNc1nc(NCC)nc(SCCOC(=O)COc2ccc(Cl)cc2Cl)n1,4%,x,9.9,0.6,0.66,i,5,3,-3.2
C[C@@H]1CCCCO[C@H](CN(C)C(=O)CCC(F)(F)F)[C@@H](C)CN([C@H](C)CO)C(=O)c2cc(NC(=O)Nc3ccc4c(c3)OCO4)ccc2O1,x,x,0.8,x,x,i,-1,-1,-0.4
C[C@@H]1CN([C@@H](C)CO)C(=O)c2cc(NC(=O)NC3CCCCC3)ccc2O[C@@H]1CN(C)CC1CCCCC1,x,x,0.5,x,x,i,2,-6,-1.0
CCN(CC)S(=O)(=O)c1cc(NC(=O)Cc2ccc(S(=O)(=O)N3CCOCC3)s2)ccc1Cl,x,x,-3.0,0.7,0.7,i,3,-9,3.7
CC(C)[C@H](NC(=O)OCc1ccccc1)C(=O)OCC(=O)Nc1ccc(N2CCOCC2)cc1,-13%,58,4.5,-1.8,0.73,i,12,2,1.1
COc1ccccc1-n1ccnc1SCC(=O)NC1CCCC1,-4%,29,0.1,1.8,0.69,i,4,-5,-4.5
CCOC(=O)N1CCN(S(=O)(=O)c2c(C)cc(C)cc2C)CC1,14%,3,x,-0.1,0.75,x,x,x,x
CCOC(=O)CN1CC23C=CC(O2)C(C(=O)N2CCN(c4ccc(F)cc4)CC2)C3C1=O (centres undefined),8%,16,-23,-1.1,0.75,i,-1,3,0.9
Cc1nccn1CCC(=O)O,4%,11,x,1.5,0.7,x,x,x,x
CC(C)(C)OC(=O)NCCc1onc(-c2ccc([N+](=O)[O-])cc2)c1C(=O)O,-5%,x,-2.2,-0.8,x,i,20,9,4.9
CCC(=O)N1[C@@H](CO)[C@H](c2ccccc2)[C@@H]1CN(C)C(=O)CN1CCOCC1,x,x,-1.8,x,x,i,0,9,-0.7
CC(C)C(NS(=O)(=O)c1cccc2nsnc12)C(=O)Nc1nccs1 (centres undefined),1%,-9,-2.4,1.9,0.73,i,8,-3,5.1
CCOc1ccc(NC(=O)CN(c2ccc([N+](=O)[O-])cc2)S(=O)(=O)c2ccccc2)cc1,32%,-29,-2.7,0.5,0.71,i,-2,-6,-5.4
C[C@H](CO)N1C[C@H](C)[C@H](CN(C)S(=O)(=O)c2ccc(F)cc2)Oc2c(NC(=O)CCCCCC(=O)Nc3ccccc3N)cccc2C1=O,x,x,-1.9,x,x,i,0,1,-1.8
OCCSc1nnc(Nc2ccccc2)s1,3%,2,x,-2.8,0.69,x,x,x,x
COCCOC(=O)c1c(C)n(C)c2ccc(OC(=O)N3CCOCC3)cc12,3%,x,x,0.5,0.7,x,x,x,x
COc1ccc(C(C(=O)NC2CCCC2)n2c(-c3cccs3)nc3ccccc32)cc1 (centres undefined),x,x,-0.2,-0.8,x,i,-3,-21,-0.4

# The last 2 compounds of the part above open the next one:
SMILES,Vif A3G,ALR inh,MLL AF4-AF9 inh,HNF4A DNA FP,E coli growth,FGF22 binding,Ecoli rRNA inh,Ecoli rRNA inh OD600,Ecoli rRNA inh RFP
COCCOC(=O)c1c(C)n(C)c2ccc(OC(=O)N3CCOCC3)cc12,3%,x,x,0.5,0.7,x,x,x,x
COc1ccc(C(C(=O)NC2CCCC2)n2c(-c3cccs3)nc3ccccc32)cc1 (centres undefined),x,x,-0.2,-0.8,x,i,-3,-21,-0.4
CC(C)c1nnc(NC(=O)CCC(=O)N2CCN(c3ccc(Cl)cc3)CC2)s1,x,35,-0.5,-1.7,0.69,i,1,-14,5.4
O=C1CNC(=S)N1Cc1cccc(Cl)c1,6%,7,0.5,0.9,0.71,i,-3,8,6.4
CC(C)CN1CC(COCc2ccccc2)Oc2ccccc2S1(=O)=O (centres undefined),-2%,x,-2.4,-3.1,0.67,i,-13,-12,-6.1
N#Cc1cnc(Oc2ccc(Cl)cc2)nc1N,-8%,-2,2.1,1.6,0.63,i,-14,-5,-7.7
COCc1nc2ccccc2n1CCOc1ccccc1OC,0%,-2,x,1.2,0.71,x,x,x,x
Cc1nc2c3cc(F)ccc3n(Cc3ccccc3)c2s1,x,-77,2.0,0.9,0.7,i,-10,-4,-4.0
O=C1CC2(CCCC2)CC(=O)N1CCCCN1CCN(c2ncccn2)CC1,31%,x,-3.1,-0.4,0.67,i,x,x,x
CCCCN(CCO)c1ncnc2sc(-c3ccccc3)cc12,1%,x,-0.6,4.3,0.68,i,3,5,3.7
NC(=O)c1ccc(NC(=O)COC(=O)c2ccc3ccccc3n2)cc1,-5%,-6,-8.0,1.8,0.73,x,14,13,1.7
CCCC(=O)N1CC2(C1)CN(C(=O)CC)[C@@H](CO)c1c2c2ccc(OC)cc2n1C,x,x,-2.7,x,x,i,-1,7,-2.2
COCc1c(C(=O)N/N=C\c2ccccn2)nnn1-c1nonc1N,x,-4,0.5,-3.5,x,i,3,3,-1.6
C/C(CC(=O)Nc1ccc(Cl)cn1)=N\NC(=O)Cc1cccs1,5%,x,-1.4,-0.8,x,i,-4,-16,-2.8
Cc1ccc2[nH]cc(CCNC(=O)C3CCCO3)c2c1 (centres undefined),x,70,-2.6,0.6,0.69,i,2,2,-4.7
Cc1ccc2c(c1)[nH]c1c(=O)n(CCN3CCNCC3)cnc12,20%,x,x,-0.6,0.73,x,x,x,x
CCO/C=C1/C(=O)N(C)C(=O)c2cc(OC)ccc21,-1%,-37,x,-1.7,0.75,x,x,x,x
COc1ccccc1C(=O)Nc1ccc2c(c1)C(=O)N(C)C[C@H](OC)[C@H](C)CN(C)[C@H](C)CO2,x,x,-1.8,x,x,i,-7,-8,1.3
Cn1c(=O)c2c(=O)cc(NNC(=O)C(C)(C)C)[nH]c2n(C)c1=O,2%,-3,x,3.6,0.7,x,x,x,x
O=C1c2ccccc2C(=O)N1CCSc1ccccc1,0%,-5,x,-1.7,0.66,x,x,x,x
Cc1ccccc1-c1nn(-c2ccc(F)cc2F)cc1CNCCN(C)C,-10%,-48,2.1,1.9,0.68,i,-1,0,2.8
Cc1ccc(C(=O)C(C)OC(=O)c2nc(Cl)ccc2Cl)cc1 (centres undefined),x,3,-1.6,2.4,0.68,i,1,6,2.0
COc1ccc(N(C(=O)Cc2cccs2)C(C(=O)NC2CCCC2)c2ccncc2)cc1OC (centres undefined),x,-12,-2.2,1.8,0.66,i,7,12,3.2
CN(C)CCn1c2c(c(SCC(=O)NCc3ccccc3)nc1=O)CCC2,1%,-46,1.1,-4.0,0.65,x,10,7,2.0
Cc1cc(C)n(-c2nc3ccccc3nc2N2CCN(S(=O)(=O)c3ccc4ccccc4c3)CC2)n1,-11%,0,x,-2.3,0.78,x,x,x,x
Cc1cccc(C(C)(C)C)c1OCCCCN1CCCC1,u,0,x,-0.8,0.7,x,x,x,x
CC(=O)c1cccc(NC(=O)CNC(=O)c2sc3ccccc3c2Cl)c1,-52%,-9,-0.1,15,0.67,i,-9,-13,-5.4
COc1ccccc1CNc1cc(CSc2ccc(Cl)cc2)nc(C)n1,-5%,-7,x,-1.5,0.73,x,x,x,x
CCC(C)NS(=O)(=O)c1ccc(NS(=O)(=O)c2ccc(F)cc2)cc1 (centres undefined),>100µM*,-2,x,2.0,0.72,x,x,x,x
Cc1noc(C)c1S(=O)(=O)N(C)C[C@@H]1OCCCC[C@@H](C)Oc2ccc(NS(C)(=O)=O)cc2C(=O)N([C@H](C)CO)C[C@H]1C,x,x,-11,x,x,i,0,-2,1.6
CCOc1ccc(C(=O)CC(C(=O)O)N2CCCCC2)cc1 (centres undefined),0%,x,x,3.2,0.69,x,x,x,x
CC(=O)N(C1CC(C)C(C#N)(C#N)C1(C#N)C#N)N(C)C (centres undefined),4%,11,2.8,0.0,0.73,i,2,6,2.9
COc1ccccc1CCn1cnc(-c2ccccc2OC)c1C(C)C,x,x,9.1,x,x,i,-55,-76,-14
CN(C(=O)c1cccc(Nc2ccc(-c3ccc4c(c3)OCCO4)nn2)c1)C1CCCCC1,x,-13,x,-0.7,0.71,x,x,x,x
CC(C)Cn1c(N)c(C(=O)COC(=O)CCc2nc3ccccc3s2)c(=O)n(C)c1=O,x,-5,-1.0,4.3,0.65,i,-27,-23,1.1
Nc1cccc(-n2nnnc2CN2CCOCC2)c1,0%,-6,-0.9,0.0,0.68,i,1,4,-4.0
CCN(CCCNC(=O)CCC(=O)N1CCOc2ccccc21)Cc1ccccc1,x,-3,3.1,-2.4,0.76,i,12,14,-3.4
CCn1cc(CN2CCC(n3nccc3NC(=O)c3ccccc3C)CC2)c(C)n1,x,3,-0.4,1.8,0.7,i,6,9,-1.5
